Compound activity as filed in PubChem BioAssay.
Ecoli growth: inhibitors of Escherichia coli growth; OD600, 23 h; stronger effect = lower value; 330,000 compounds, 0.21% hits; OD600 absorbance (no concentration beside the values);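 active = OD600 absorbance below the run mean of sample wells minus 3.6 SD, in any replicate, cut at about 0.56 in these data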;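 note: stock transfer was 300 nL into about 60 µL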
ALR H2O2 inh: blocks human ALR sulfhydryl oxidase activity | 290,000 compounds, 3.8% hits | inhibition, % (no concentration beside the values) | P55789 | purified ALR, DTT oxidation, H2O2 HRP-luminol luminescence;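 active = mean and each replicate at 75% or more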;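 note: stock transfer was 7.5 nL into about 7.5 µL; 0% = neutral wells and 100% = wells with inactivated enzyme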
FGF22 binding: FGF22 (human) thermal shift binding | Q9HCT0 | recombinant FGF22 thermal shift, SYPRO orange fluorescence; percent of sucrose octasulfate shift, DMSO zero | calls only at 9.99 µM | 340,000 compounds, 1.5% hits;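 active = melting point raised past a set limit in the mean and every replicate; three in four hits are not shown here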
Target sequence (Q9HCT0 whole entry, looked up): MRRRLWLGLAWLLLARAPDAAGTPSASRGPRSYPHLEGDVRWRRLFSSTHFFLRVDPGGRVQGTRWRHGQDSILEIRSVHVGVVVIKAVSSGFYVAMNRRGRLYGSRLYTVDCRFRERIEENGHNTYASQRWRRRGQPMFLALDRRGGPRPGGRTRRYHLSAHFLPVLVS
B2AR ag: activates human beta-2 adrenergic receptor causing internalization | response, % (test concentration not listed) | Am2.2-beta2AR cells, FAP receptor internalization, flow cytometry; reference of the scale not given here | P07550 | 340,000 compounds, 0.43% hits;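 active = response above a set limit, near 3 SD of response in nonfluorescent compounds, cut at about 42% in these data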;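 note: stock transfer was 100 nL into about 11 µL; a reference agonist was the positive control; negative values mostly stem from fluorescent compounds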
UCH37 DUB inh: inhibitors of human deubiquitinating enzyme UCH37 | Q9Y5K5 | purified proteasome/UCH37, Ub-AMC cleavage fluorescence | inhibition, % (no concentration beside the values) | 330,000 compounds, 0.33% hits | AID 588478;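 active = mean of two replicates above 20%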;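 note: 0% = compound-free wells with enzyme and 100% = wells lacking proteasome; stock transfer was 100 nL into about 20 µL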
Target sequence (Q9Y5K5 whole entry, looked up): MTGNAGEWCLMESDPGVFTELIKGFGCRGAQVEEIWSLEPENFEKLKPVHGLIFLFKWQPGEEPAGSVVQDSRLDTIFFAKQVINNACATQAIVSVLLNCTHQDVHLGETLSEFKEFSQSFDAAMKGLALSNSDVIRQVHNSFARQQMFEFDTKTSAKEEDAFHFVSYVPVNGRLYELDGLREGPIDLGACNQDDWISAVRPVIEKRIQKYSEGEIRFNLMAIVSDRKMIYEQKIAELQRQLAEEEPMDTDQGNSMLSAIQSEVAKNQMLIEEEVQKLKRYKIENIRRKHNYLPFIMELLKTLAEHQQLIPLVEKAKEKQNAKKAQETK
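Material: human UCH37 enzyme supplied as purified proteasome complex / Amount: 0.15 nM proteasome as dispensed / Buffer or medium: pH 7.4 Tris-HCl (50 mM) with ovalbumin, ATP-MgCl2, DTT / Times: preincubation 30 min, reaction 25 min, room temperature / Technique: AMC fluorescence from Ub-AMC cleavage, excitation 355 nm, emission 460 nm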
rRNA inh HTS: inhibits bacterial ribosomal RNA function over humanized ribosomes. 350,000 compounds, 1.6% hits. GFP signal change (wild-type ribosome), % (no concentration beside the values). E. coli WT GFP vs humanized-ribosome RFP mutants, fluorescence, 24 h; stronger effect = lower value; DMSO median 0, no signal -100. AID 720706;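 active = significant combined selectivity score with lowered wild-type GFP, culture density cut under 30%, mutant RFP and density less affected; inactive = any of these conditions unmet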; note: one replicate is shown; some compounds called inactive have numbers as strong as hits
HNF4A DNA FP: change in binding of human HNF4 alpha to DNA | P41235 | HNF4a-FITC DNA binding, fluorescence polarization, 1 h | activity change, % at 10 µM | 360,000 compounds, 0.3% hits; in the data active = activity change above about 30%, passing the limit was not always enough;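 note: controls were the assay level and a saturating level of protein; the project sought stronger binding though the title names inhibitors; some compounds called inactive have numbers as strong as hits; positive values seem to mean higher polarization but the record does not say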
Target sequence (P41235 whole entry, looked up): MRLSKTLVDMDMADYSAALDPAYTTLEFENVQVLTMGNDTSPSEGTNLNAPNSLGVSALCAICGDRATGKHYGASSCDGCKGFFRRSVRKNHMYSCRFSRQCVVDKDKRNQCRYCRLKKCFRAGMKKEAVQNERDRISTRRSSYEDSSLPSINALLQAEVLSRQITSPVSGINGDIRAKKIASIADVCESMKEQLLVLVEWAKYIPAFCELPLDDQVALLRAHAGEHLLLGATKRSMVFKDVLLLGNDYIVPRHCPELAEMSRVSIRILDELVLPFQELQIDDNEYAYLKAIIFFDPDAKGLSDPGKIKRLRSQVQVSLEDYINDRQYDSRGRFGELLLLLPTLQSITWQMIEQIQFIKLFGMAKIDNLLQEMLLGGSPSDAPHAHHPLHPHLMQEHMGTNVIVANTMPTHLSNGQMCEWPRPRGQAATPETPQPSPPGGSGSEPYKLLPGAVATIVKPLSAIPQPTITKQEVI
rRNA inh HTS OD600: also measured in rRNA inh HTS; calls as there; OD600 change, %; measured here: OD600 growth;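 optical density of the mix in the first replicate; 0 = DMSO median and -100 = no signal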
rRNA inh HTS RFP: recorded beside rRNA inh HTS, whose call it bears; RFP signal change, %; measured here: RFP humanized mutant strains;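 first replicate; 0 = DMSO median and -100 = no signal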
The depositor's hits bear a star; i = inactive; . = no result given. A portion of the library; count on the stated rates, not on these rows.

SMILES | Ecoli growth | ALR H2O2 inh | FGF22 binding | B2AR ag | UCH37 DUB inh | rRNA inh HTS | rRNA inh HTS OD600 | rRNA inh HTS RFP | HNF4A DNA FP
COc1ccc(O)c(/C=C(\C#N)C(=O)Nc2ccccn2)c1 | 0.7 | . | i | -1 | -119 | 15 | 13 | 1.5 | -2.0
CCOCCCNC(=O)c1c(-c2ccccc2)noc1C | 0.71 | . | . | 7 | 1.3 | . | . | . | 1.6
Nc1cc[n+](CC(=O)c2ccccc2)cc1 | 0.73 | -5 | i | 6 | 1.4 | 14 | 5 | 2.5 | 1.6
COC(=O)c1sc(NC(=S)NNC(=O)c2c(Br)c(C)nn2C)c(C(=O)OC)c1C | 0.68 | 63 | i | 20 | 14 | -20 | -15 | -1.2 | -5.5
Cc1oc2c(C)c3oc(=O)c(CCC(=O)N4C[C@H]5C[C@@H](C4)c4cccc(=O)n4C5)c(C)c3cc2c1C | 0.7 | -3 | i | 8 | 4.4 | . | . | . | 4.1
CCN(CC)S(=O)(=O)c1ccc(-c2nnc(SCC(C)=O)o2)cc1 | 0.74 | 46 | . | 1 | 1.7 | . | . | . | -2.1
CC(=O)OCCNC(=O)c1cccnc1 | 0.7 | -2 | . | 5 | -0.6 | . | . | . | -0.8
O=C(CSc1nc2ccsc2c(=O)n1Cc1ccccc1)NCC1CCCO1 (stereo unspecified) | 0.67 | 12 | i | -3 | -1.9 | 6 | 0 | -1.8 | -1.8
COc1ccc(NC(=O)c2sc3nc(N4CCOCC4)c4c(c3c2N)CC(C(C)C)OC4)c(OC)c1 (stereo unspecified) | 0.71 | -1 | i | 7 | -394 | 6 | 5 | -4.1 | -0.7
CCc1c(C)sc(NC(=O)/C=C/C(=O)O)c1C(N)=O | . | 26 | i | -1 | . | 14 | 7 | 3.6 | -0.1
OCCN(CCCn1c(-c2ccncc2)nc2ccccc21)c1nc(CN2CCCCC2)cs1 | 0.71 | -25 | i | -19 | -1.4 | 20 | 16 | 0.6 | 0.3
O=C(NC(=O)c1ccc(Cl)c(Cl)c1)OC1CCS(=O)(=O)C1 (stereo unspecified) | 0.72 | -8 | . | -2 | -1.3 | . | . | . | -2.2
Cn1nc(C(F)(F)F)c(C(=O)Nc2ccc(F)cc2F)c1Sc1cccc(Cl)c1 | 0.69 | -3 | . | -9 | 0.5 | . | . | . | -0.3
COc1cccc(C2=NN(C(=O)c3ccccc3)C(O)(C(F)(F)F)C2)c1 (stereo unspecified) | 0.68 | . | . | -5 | 5.5 | . | . | . | 3.4
O=C1C(=Cc2ccc(Cl)cc2)CCc2ccccc21 | . | . | i | . | . | 18 | 18 | 3.9 | 3.5
CCC(C)NC(=O)c1cc(Cl)ccc1OC (stereo unspecified) | 0.75 | -1 | . | -1 | 2.9 | . | . | . | 0.4
O=C(CSc1ncnc2sccc12)N1CCN(C(=O)c2cccs2)CC1 | 0.69 | 4 | i | -5 | 0.3 | . | . | . | 1.1
COc1ccc(S(=O)(=O)N2CCCCC2)cc1NC(=O)c1ccc(C)cc1 | 0.69 | 3 | i | 0 | -4.1 | . | . | . | 0.7
Cc1ccc(NC(=O)NNC(=O)CN2C(=O)COc3ccccc32)cc1 | 0.68 | 17 | i | -3 | 2.4 | -1 | 4 | 1.6 | -0.5
CC(C)c1ccccc1NC(=S)NCC1(N(C)C)CCCCC1 | 0.71 | -7 | i | 1 | 0.9 | 13 | 14 | -0.1 | -0.2
CNc1ncnc(NC)c1[N+](=O)[O-] | 0.63 | . | i | 3 | 12 | 6 | 12 | -2.4 | -0.1
CCOC(=O)C(C)n1ncn2cccc2c1=O (stereo unspecified) | 0.72 | -2 | . | 10 | 0.3 | . | . | . | 3.7
O=C(Cn1cc2c(n1)CCCC2)N1CCc2ccccc21 | 0.73 | . | i | -11 | 1.1 | 3 | 8 | 0.8 | 0.1
CC(=O)Nc1ccc(S(=O)(=O)NC(C(=O)O)C(C)O)cc1 (stereo unspecified) | 0.69 | . | i | 1 | 3.0 | 2 | -6 | -5.7 | 1.3
CCc1c(C)nc(SCCOc2ccc(OC(C)C)cc2)[nH]c1=O | 0.72 | -3 | . | 4 | 5.0 | . | . | . | 0.3
(list continues)
SMILES | Ecoli growth | ALR H2O2 inh | FGF22 binding | B2AR ag | UCH37 DUB inh | rRNA inh HTS | rRNA inh HTS OD600 | rRNA inh HTS RFP | HNF4A DNA FP
COc1ccc(-c2[nH]ncc2CNC(C)c2ccccc2Cl)cc1F (stereo unspecified) | 0.68 | -2 | i | -2 | 3.2 | -4 | -11 | -1.5 | -1.3
N#CN1CCC(NS(=O)(=O)c2ccc(C(F)(F)F)cc2)CC1 | 0.65 | -1 | i | -4 | 2.5 | 8 | 11 | 4.5 | 7.0
Cc1cc(C)c2cc3c(N)c(C(=O)Nc4c(C)[nH]c(=O)[nH]c4=O)sc3nc2c1 | 0.68 | -1 | . | 4 | -5.0 | . | . | . | 4.6
CCOc1ccccc1OCCC(=O)Nc1ccc(F)c(Cl)c1 | 0.71 | . | i | 20 | 5.4 | . | . | . | -1.0
CCN(CC)C(=O)COc1ccc(S(=O)(=O)N2CCCC2)cc1 | 0.68 | -6 | i | -2 | 0.7 | -1 | 2 | -1.6 | -3.3
COc1ccc(OCC(=O)Nc2ccc3c(c2)nc(CN2CCCC2)n3C)cc1 | 0.76 | . | . | -8 | 3.0 | . | . | . | 1.4
CCc1ccc(OCC(=O)N/N=C(\C)c2ccc3c(c2)OCCO3)cc1 | . | -23 | . | 1 | . | . | . | . | 1.5
C/C(=N\NC(=O)C(=O)N/N=C(\C)c1cccc(O)c1)c1cccc(O)c1 | . | 14 | i | 1 | . | -9 | -4 | -2.7 | -1.1
O=C(COc1ccccc1)N/N=C/c1cc2c(cc1[N+](=O)[O-])OCO2 | . | -15 | . | 4 | . | . | . | . | -2.4
O=C(O)C(O)Cc1c[nH]c2ccccc12 (stereo unspecified) | 0.67 | 0 | i | 6 | 2.7 | 14 | 0 | 11 | -0.2
COc1cc(OC)cc(C(=O)NCC(=O)OCC(=O)NCc2ccco2)c1 | . | 1 | i | -2 | . | 8 | 12 | 6.7 | -6.4
CCn1c(SCC(=O)NC(=O)NC(C)(C)C)nc2ccccc21 | 0.72 | -8 | i | -4 | 5.5 | 8 | 6 | -1.3 | -7.9
O=[N+]([O-])c1cccc(C(=NCc2ccccc2)NO)c1 | 0.68 | 11 | i | 8 | 3.6 | 1 | 1 | -5.3 | 2.4
c1ccc(COc2ncnc3c2ncn3CCCN2CCN(c3ccccn3)CC2)cc1 | . | . | i | -7 | . | -7 | -7 | 0.9 | 6.2
CC(C)CCN(C(=S)Nc1cccc(C(F)(F)F)c1)C(C)c1ccccn1 (stereo unspecified) | 0.67 | 0 | i | 6 | -2.0 | -34 | -32 | -0.7 | -0.5
CC(NC(=O)c1cc2c(s1)CS(=O)(=O)C2)c1ccccc1 (stereo unspecified) | 0.7 | -9 | i | 0 | 0.5 | 18 | 14 | 1.5 | 2.9
Cc1cc(-n2c(C)cc(C(=O)CCl)c2C)no1 | 0.68 | . | . | 65* | 8.3 | 12 | -1 | 1.1 | 1.1
O=C(COC(=O)CCN1C(=O)/C(=C\C=C\c2ccccc2)SC1=S)Nc1cc(F)ccc1F | 0.71 | 5 | i | -3 | 8.2 | 1 | 12 | 28 | 22
Cc1ccc(NC(=S)NCc2ccc(F)cc2)c(C)c1 | . | 12 | i | -4 | . | -9 | -1 | -7.8 | 4.5
COc1ccc(NC(=O)c2oc3ccccc3c2NC(=O)C2CC2)c(OC)c1 | 0.7 | -7 | i | 7 | 1.4 | 3 | 8 | -0.7 | -2.5
CNc1nnc(Sc2ncccc2[N+](=O)[O-])s1 | 0.71 | -16 | i | 3 | 5.5 | -19 | -27 | -0.6 | 6.6
O=S(=O)(Nc1cccnc1Cl)c1ccc(-c2ccccc2)cc1 | 0.68 | 8 | i | 4 | 1.9 | -18 | -42 | 0.3 | 1.9
COC(=O)c1ccc(CSc2nc3c(c(=O)n2-c2ccc(Br)cc2)SCC3)o1 | 0.66 | -1 | . | -8 | 3.0 | . | . | . | -1.0
CN(C)S(=O)(=O)c1cccc(NC(=O)COC(=O)c2cccn2C)c1 | 0.68 | . | i | -12 | 0.8 | -1 | -2 | 0.3 | 0.8
NC(=O)C1CCN(Cc2nc3cc(C(F)(F)F)ccc3c(=O)[nH]2)CC1 | 0.66 | -7 | i | -5 | 0.1 | 10 | 9 | -0.9 | -0.9
(further entries)
SMILES | Ecoli growth | ALR H2O2 inh | FGF22 binding | B2AR ag | UCH37 DUB inh | rRNA inh HTS | rRNA inh HTS OD600 | rRNA inh HTS RFP | HNF4A DNA FP
O=C(COc1coc(CN2CCc3ccccc3C2)cc1=O)Nc1ccc(F)cc1 | 0.69 | -1 | i | 4 | 3.8 | 1 | 7 | -0.4 | 0.7
CCCOc1ccc(C(=O)N2CCCC2)cc1OC | 0.72 | -3 | . | 4 | 4.7 | 18 | 16 | 2.0 | 2.9
CCn1c(N2CCN(CC(=O)c3ccc(OC)cc3)CC2)nc2ccccc21 | 0.67 | . | . | 8 | 2.6 | . | . | . | 1.0
COc1ccc(C(=O)Nc2nnc(S(=O)(=O)N(C)Cc3ccccc3)s2)cc1 | 0.71 | -6 | i | 8 | 1.1 | 1 | 3 | -1.3 | 1.8
COc1ccc(NS(=O)(=O)N2CCCCC2)cc1 | 0.7 | . | . | -11 | 3.2 | 8 | 3 | -0.3 | -6.0
COC(=O)c1ccc(CN2CCN(CCc3ccccc3)C(CCO)C2)cc1 (stereo unspecified) | 0.68 | -7 | i | 5 | 2.9 | 8 | 1 | 2.3 | 2.7
COc1cccc(C2NC(CCSC)(C(=O)O)C3C(=O)N(C(C)C)C(=O)C23)c1O (stereo unspecified) | 0.73 | 98* | i | 4 | 8.1 | -1 | -3 | -4.7 | 0.6
CCOc1ccccc1C(C(=O)NC1CCCC1)N(C(=O)c1csnn1)C1CC1 (stereo unspecified) | 0.65 | -7 | i | -5 | 1.8 | . | . | . | 2.7
CS(=O)(=O)N1CCN(c2ccccc2NC(=O)c2cccc3ccccc23)CC1 | 0.72 | -6 | . | 9 | 2.0 | . | . | . | -1.1
COc1ccc(C2CC(c3ccc(Cl)cc3Cl)Nc3nc(N)nn32)cc1OC (stereo unspecified) | 0.65 | -1 | i | 2 | 1.0 | -3 | -6 | -2.5 | 0.5
O=C(CCSc1nnc(-c2ccncc2)o1)Nc1ccc(F)cc1 | 0.68 | . | . | 6 | -0.9 | . | . | . | -1.8
CC(=O)c1cccc(NC(=O)NCc2ccccn2)c1 | 0.67 | 23 | i | 13 | -2.2 | 8 | -1 | -5.3 | -2.6
CCn1c(CNc2ccc(Cl)cc2)nnc1SCc1ccc(C)cc1 | 0.69 | -2 | . | -27 | 4.3 | . | . | . | 3.8

A second format for three compounds above.
> OCCN(CCCn1c(-c2ccncc2)nc2ccccc21)c1nc(CN2CCCCC2)cs1
  Ecoli growth: 0.71 | ALR H2O2 inh: -25 | FGF22 binding: i | B2AR ag: -19 | UCH37 DUB inh: -1.4 | rRNA inh HTS: 20 | rRNA inh HTS OD600: 16 | rRNA inh HTS RFP: 0.6 | HNF4A DNA FP: 0.3
> O=C(NC(=O)c1ccc(Cl)c(Cl)c1)OC1CCS(=O)(=O)C1 (stereo unspecified)
  Ecoli growth: 0.72 | ALR H2O2 inh: -8 | FGF22 binding: . | B2AR ag: -2 | UCH37 DUB inh: -1.3 | rRNA inh HTS: . | rRNA inh HTS OD600: . | rRNA inh HTS RFP: . | HNF4A DNA FP: -2.2
> Cn1nc(C(F)(F)F)c(C(=O)Nc2ccc(F)cc2F)c1Sc1cccc(Cl)c1
  Ecoli growth: 0.69 | ALR H2O2 inh: -3 | FGF22 binding: . | B2AR ag: -9 | UCH37 DUB inh: 0.5 | rRNA inh HTS: . | rRNA inh HTS OD600: . | rRNA inh HTS RFP: . | HNF4A DNA FP: -0.3
